H5N1 CPE: MDCK cell protection from H5N1 avian flu | AID 740 | 0.07% of 96,000 active | cytopathic effect, luminescence, 72 h; hits give high values; no value below 0 was filed and about half of the inactive calls have no number; reference of the scale not given here | inhibition, % at 50 µM; in the data active = inhibition above about 25%
An asterisk follows results filed as active; i = inactive. Some of the compounds tested, so the mix of outcomes need not match the whole.

mol	H5N1 CPE
CCCN(CCC)c1nc(NC2CCN(C(=O)OCC)CC2)nc(OC)n1	i
COc1ccc(C(c2sc3nc(C)nn3c2O)N2CCC3(CC2)OCCO3)cc1 (stereo unspecified)	i
Cc1oc(C)c(C(=O)Nc2ccc(CC(=O)O)cc2)c1C(=O)Nc1ccc(CC(=O)O)cc1	0.1
CC(Sc1nnc(-c2cc3ccccc3o2)n1-c1ccccc1)C(=O)O (stereo unspecified)	0.9
Cc1ccc(C(=O)C(OC(=O)COc2ccccc2C)c2ccccc2)cc1 (stereo unspecified)	i
CCCCn1c(SCC(=O)Nc2nc(C)cs2)nnc1-c1cccnc1	1.1
O=C(Nc1nnc(-c2ccccc2)o1)c1ccc(Cl)cc1	1.1
CCC(C)OC(=O)C1=C(C)NC(=O)NC1c1ccc(F)cc1 (stereo unspecified)	1.6
Cc1ccc(NC(=O)CN(Cc2ccccc2)S(C)(=O)=O)cc1C	1.7
COC(=O)N1CC(=O)N(OC)C1c1ccc(Cl)cc1Cl (stereo unspecified)	i
C1CNC2NCCNC2N1 (stereo unspecified)	i
Cc1ccc(-c2nnc(-c3ccc(NC(=O)c4ccco4)cc3)o2)cc1	1.5
CC(C)(C)C(=O)NC(=C(Cl)Cl)P(=O)(O)O	0.2
Clc1ccc(-n2ncc3c(NCCN4CCOCC4)ncnc32)cc1	i
O=C(O)CC(O)C(=O)O (stereo unspecified)	0.1
CCCCN(CC)C(=O)c1ccc(Cl)c(Cl)c1	i
O=C(Nc1nccs1)c1cc2c(s1)CCCCC2	i
COc1cc(C2CC(=O)N(CC(=O)NCc3ccco3)c3ccccc3S2)cc(OC)c1OC (stereo unspecified)	0.2
CC1CCc2nc(NC(=O)CN3CCN(Cc4ccc5c(c4)OCO5)CC3)sc2C1 (stereo unspecified)	i
Cn1c(=O)c(=O)n(C)c2cc(S(=O)(=O)N3CCN(c4cccc(C(F)(F)F)c4)CC3)ccc21	i
O=C1CC(NCc2ccco2)C(=O)N1CCc1ccccc1 (stereo unspecified)	1.7
Cc1ccc(C(=O)NC2CCSC2=O)cc1 (stereo unspecified)	0.2
CCOC(=O)c1cnn(-c2nc(-c3ccc(C)cc3)cs2)c1C(F)(F)F	i
COCCNC(=O)c1cc(-c2ccc3c(c2)OCO3)on1	i
CN(C)/C=C(/C(=O)c1ccc(Cl)cc1)S(=O)(=O)c1ccc(Cl)cc1	i

An excerpt of these results, with each value named.
SMILES: O=C(O)CC(O)C(=O)O (stereo unspecified)
- H5N1 CPE: 0.1

SMILES: CCCCN(CC)C(=O)c1ccc(Cl)c(Cl)c1
- H5N1 CPE: i

Carrying on.
mol	H5N1 CPE
CCOC(=O)C1CCN(C(C(=O)NC2CCCC2)c2ccc(C)cc2)CC1 (stereo unspecified)	0.2
COC(=O)c1ccccc1NC(=O)c1ccc(-c2cccc(Cl)c2)o1	0.1
CCN1CCN(CC(O)COc2ccc(C)c(C)c2)CC1 (stereo unspecified)	i
CCc1cc2c(Sc3nc4ccccc4s3)ncnc2s1	6.0
COc1ccc(OC)c(CCNC(=O)Cn2sc3nc(C)cc(C)c3c2=O)c1	0.7
Cc1ccc(-c2c3c(=O)n(C)c(=O)n(C)c3cn2-n2cnnc2)cc1	i
O=S1(=O)CCN2C=Nc3sc4c(c3C2=N1)CCCC4	2.4
COc1ccc(-c2csc(N3CCOCC3)n2)cc1OC	i
Cc1nnc(N)nc1C	i
Cc1ccc(OCCn2ccc(=O)[nH]c2=O)cc1C	i
CCN(CC)CCN1C(=O)C(O)=C(C(=O)c2cc3ccccc3o2)C1c1cccnc1 (stereo unspecified)	0.8
CCN(Cc1ccccc1)C(c1cccc(C#N)c1)c1nnnn1C(C)(C)C (stereo unspecified)	3.8
CCOC(=O)N1CCN(C(=O)c2ccc(N3C(=O)CCC3=O)cc2)CC1	0.5
N#Cc1ccc(-c2csc(NNC(=O)c3ccc(Br)cc3)n2)cc1	4.7
COC(=O)CSc1nc2cc(OC)ccc2cc1C#N	0.6
O=C(CNC1CCCCC1)N1CCC2(CC1)OCCO2	0.0
Cc1ccc(C(=O)Nc2nc(COc3ccccc3)cs2)s1	i
COc1cc2c(cc1OC)-c1cc(Nc3ccc4c(c3)OCCO4)nc(=O)n1CC2	0.9
CCCOc1cccc(NC(=O)c2c(-c3ccccc3)noc2C)c1	i
Cc1ccc(Cl)cc1NC(=O)COC(=O)C1CCCCC1	i
CC[C@H](C)[C@H](NS(=O)(=O)c1ccc(C)cc1)C(=O)N1CCC(C(=O)N[C@H](C(=O)O)C(C)C)CC1	0.6
COc1ccc(C)cc1NC(=O)c1ccc(S(=O)(=O)N2CCOCC2)cc1	i
Cc1nc(Oc2cccc(Cl)c2)c2oc3ccccc3c2n1	0.3
CC1(c2ccc3noc(-c4ccc(F)cc4)c3c2)OCCO1	i
CCOC(=O)N1CCC(n2c(SCC(=O)NCc3ccccc3)nc3ccccc3c2=O)CC1	0.4
C=CCn1c(SCC(N)=O)nc(C)cc1=O	i
CC(C)COc1ccc(Cc2cnc(N)nc2N)cc1	i
Cc1oc(-c2ccccc2F)nc1CS(=O)(=O)CC(=O)NCCN(C)C1CCCCC1	0.3
COc1ccc(Cl)cc1S(=O)(=O)N1CCN=C1C	0.8
CC(=O)c1cccc(NC(=O)CCNS(=O)(=O)c2cccc3nsnc23)c1	1.1
COc1ccc(-c2nn(C)c3sc(C(=O)N4CCOCC4)cc23)cc1OC	0.9
Cc1ccc(-c2noc(CCC(=O)NCCCN3CCN(c4cccc(Cl)c4)CC3)n2)cc1	i
COc1ccc(N2CCN(CCNC(=O)CCNS(=O)(=O)c3cccs3)CC2)cc1	1.2
CCN(CC)CCCN1C(=O)C(O)=C(C(C)=O)C1c1cccc(OC)c1 (stereo unspecified)	i
CC(=O)N1CCN(C(=O)c2cccc(S(=O)(=O)Nc3ccc(C)cc3)c2)CC1	0.7
CC(C)(C)c1cc(C(=O)NCc2ccccc2)ccn1	0.3
CC(C)CC(=O)NN(C)c1nc(-c2ccccc2)nnc1C(F)(F)F	i
CCOC(=O)C(=CNc1cc(C)nn1-c1ccc(C)cc1)C(=O)OCC	i
COc1cc(CN(C)Cc2ccccc2)cc(OC)c1O	0.2
N#CCCN(Cc1cccnc1)S(=O)(=O)c1ccc(S(=O)(=O)NC2CCCCC2)cc1	i
CCOc1cc(Br)ccc1S(=O)(=O)N1CC(C)OC(C)C1 (stereo unspecified)	1.5
O=C(NCc1cccnc1)c1ccc(CS(=O)(=O)c2ccc(Cl)cc2)o1	0.9
C/C(=N\OC(=O)c1ccc(C)cc1)c1sc(C)nc1C	i
Cc1cc(C(F)F)n2nc(C(=O)Nc3cc(C)on3)nc2n1	i
Cc1cc(Nc2ccc(Cl)cc2)n(-c2cccc(Cl)c2)n1	0.5
CCc1ccc(-c2nc(CN3CCCC(C(=O)O)C3)c(C)o2)cc1 (stereo unspecified)	0.6
C=CCn1c(SCc2c(C)noc2C)nc2ccccc2c1=O	2.5
c1ccc2c(c1)nnn2-c1ncnc2sc3c(c12)CCCC3	0.5
CC(C)(C)NC(=O)COC(=O)c1cc(S(=O)(=O)N2CCCCC2)ccc1N1CCOCC1	1.7
Cc1cc(C(C)c2ccccc2)c(O)c(CN2CCOCC2)c1C (stereo unspecified)	i

Some of these compounds in order of length of the SMILES, lowest first.
mol	H5N1 CPE
CC(C)COc1ccc(Cc2cnc(N)nc2N)cc1	i
c1ccc2c(c1)nnn2-c1ncnc2sc3c(c12)CCCC3	0.5
CC(=O)c1cccc(NC(=O)CCNS(=O)(=O)c2cccc3nsnc23)c1	1.1
COc1ccc(N2CCN(CCNC(=O)CCNS(=O)(=O)c3cccs3)CC2)cc1	1.2
N#CCCN(Cc1cccnc1)S(=O)(=O)c1ccc(S(=O)(=O)NC2CCCCC2)cc1	i

Further structures.
mol	H5N1 CPE
CCOC(=O)Cc1csc(NC(=O)c2sc3nc4ccc(C)cc4cc3c2N)n1	0.1
CC(C)NC(=O)CC1OC(=O)c2ccccc21 (stereo unspecified)	0.6
COC(=O)CSc1nc2nc(C)cc(C)n2n1	0.5
C=CCNc1oc(/C=C/c2ccccc2)nc1C#N	4.3
CCOCCCn1c(=N)c(C(=O)NCc2ccc3c(c2)OCO3)cc2c(=O)n3ccccc3nc21	4.1
Cc1onc(-c2c(F)cccc2Cl)c1C(=O)N1C=CC(C(F)(F)F)=NCC1	i
Cc1cc(C)n2nc(SCc3cc(=O)oc4ccc5ccccc5c34)nc2n1	0.6
COc1ccc(CC(=O)Nc2ccc3c(c2)CCC3)cc1OC	0.3
O=C(CCCCCn1c(=O)[nH]c2ccsc2c1=O)NCc1ccc2c(c1)OCO2	0.3
N#Cc1c(N)c(C#N)c(-c2ccc3c(c2)OCO3)c2c1CCCC2	2.5
CC(C)NCCOCCOc1ccccc1F	i
Cc1ccccc1N=C1NC(=O)CC(c2ccccc2)S1 (stereo unspecified)	i
Cc1cccc(-c2csc(NC(=O)c3cnccn3)c2C(=O)OC(C)C)c1	i
CN(C(=S)Nc1ccc(F)cc1)C1(c2ccccc2Cl)CCCCC1=O (stereo unspecified)	0.5
CCC(C)NC(=O)Cn1c(=O)n(CCCCC(=O)NCc2ccco2)c(=O)c2ccccc21 (stereo unspecified)	0.1
CN(C)C(CNC(=O)c1cccnc1Sc1ccccc1)c1ccco1 (stereo unspecified)	i
CCOC(=O)Cn1c(=O)oc2cc(S(=O)(=O)NCCc3ccc(C)cc3)ccc21	1.4
CN1C(=O)/C(=C\c2cc(N=Nc3ccccc3)ccc2O)SC1=S	i
CCc1nnc(NC(=O)c2ccc(S(=O)(=O)N(CC)CC)cc2)s1	0.5
Cc1ccc(/C=N/NC(=O)c2cc(C)oc2C)o1	3.4
O=C1C2CCCN2C(c2ccc(Cl)cc2)N1c1ccccn1 (stereo unspecified)	i
O=c1[nH]c2c(s1)C=Nc1ccccc1N2	i
Cc1noc(NS(=O)(=O)c2ccc(NC(=O)CSc3nc4ccccc4s3)cc2)c1C	0.1
O=C(NCCOc1cccc(Oc2ccccc2)c1)c1cc(-n2cnnc2)ccc1Cl	i
CCC(C)(C)n1nnnc1C(c1cc2ccc(C)cc2[nH]c1=O)N(Cc1cccnc1)Cc1ccco1 (stereo unspecified)	i

The last 6 records of the part above are carried over, then new ones follow:
molecule | H5N1 CPE
Cc1ccc(/C=N/NC(=O)c2cc(C)oc2C)o1 | 3.4
O=C1C2CCCN2C(c2ccc(Cl)cc2)N1c1ccccn1 (stereo unspecified) | i
O=c1[nH]c2c(s1)C=Nc1ccccc1N2 | i
Cc1noc(NS(=O)(=O)c2ccc(NC(=O)CSc3nc4ccccc4s3)cc2)c1C | 0.1
O=C(NCCOc1cccc(Oc2ccccc2)c1)c1cc(-n2cnnc2)ccc1Cl | i
CCC(C)(C)n1nnnc1C(c1cc2ccc(C)cc2[nH]c1=O)N(Cc1cccnc1)Cc1ccco1 (stereo unspecified) | i
CCCC1NC(=O)NC(C)=C1C(=O)OCC (stereo unspecified) | 0.2
COc1cccc(CNC(=O)c2ccc(NC(=O)C3CCCO3)cc2)c1 (stereo unspecified) | 0.9
CCOC(CNC(=O)CCc1c(C)nc2ncnn2c1C)OCC | i
O=C(O)c1cccc(OCc2ccccc2Cl)c1 | i
Cc1ccccc1-n1c(SCC(=O)c2cc(C)n(C)c2C)nnc1-c1ccncc1 | 1.6
O=C(Nc1ncc(Cc2ccccc2)s1)C1CCCO1 (stereo unspecified) | 0.1
O=C(COc1cccc2cccnc12)N1CCc2ccccc2C1 | i
c1ccc(COc2ccc(OCCCn3cncn3)cc2)cc1 | 1.9
CCc1nc(SCC(=O)Nc2cc(C)on2)c2c(=O)n(C)c(=O)n(C)c2n1 | 2.4
Cc1onc(-c2ccccc2Cl)c1C(=O)Nc1ccc(F)c(F)c1 | i
CCOC(=O)C1CCN(c2c(NCc3ccc(C(=O)NC(C)CC)cc3)c(=O)c2=O)CC1 (stereo unspecified) | i
NC(=S)NNc1cc(Cl)cc(Cl)c1 | i
O=C(CC(C(=O)O)N1CCOCC1)Nc1ccc(Cl)cc1 (stereo unspecified) | i
Cn1c(C(=O)N(Cc2ccccc2)Cc2cccs2)cc2sccc21 | i
COc1ccc(NC(=O)Nc2nnc(C(C)C)s2)cc1 | i
Cc1ccc(S(=O)(=O)N2CCN(CC(=O)NC3CCCc4ccccc43)CC2)c(C)c1 (stereo unspecified) | i
COc1ccc(C(=O)N2CCN=C2c2ccccc2)cc1OC | 0.5
CN1C(=O)c2ccccc2C(C(=O)NCc2ccco2)C1c1c[nH]c2ccccc12 (stereo unspecified) | 0.9
CCCC(=O)Nc1ccc(NC(=O)c2cccc(OC)c2)nc1 | i
C=CCSc1nc2ccccc2n1Cc1nnc(-c2cccs2)o1 | 0.9
Cc1ccc2oc(=O)c3cnn(CC(=O)N(CCCN4CCOCC4)Cc4ccco4)c3c2c1 | 2.6
COc1ccc(C)cc1NC(=O)C(=O)NNC(=O)c1ccco1 | i
CCCSc1ncc(Cl)c(C(=O)Nc2ccc(S(=O)(=O)N3CC(C)OC(C)C3)cc2)n1 (stereo unspecified) | 0.5
CCCn1nc(C(=O)NCCc2ccc(S(N)(=O)=O)cc2)c2ccccc2c1=O | 0.1
COc1ccc(NC(=O)CN2CCN(c3ccc(Cl)cc3)CC2)c(OC)c1 | i
COc1ccc(N2CCN(C(=O)CSc3nc4c(c(=O)n(C)c(=O)n4C)n3C(C)C)CC2)cc1 | 4.7
O=C(O)CCC(=O)N1CCc2cc(S(=O)(=O)NC3CCCC3)ccc21 | 1.2
N#Cc1ccc(-c2ccccc2)nc1Sc1ccc(F)cc1 | i
CCN(CCCNC(=O)C1CCC(=O)N1C(C)C)c1cccc(C)c1 (stereo unspecified) | 1.6
CCC(=O)Nc1cccc(NC(=O)COc2ccc(OC)cc2)c1 | i
CC(C)(C)N1CC(c2nc3ccccc3n2Cc2ccc(Cl)cc2)CC1=O (stereo unspecified) | i
